Cruzain inh noDet: cruzain (T. cruzi) inhibition without detergent; hit rate 2.3% among 200,000; AID 1476; Potency, µM, inactives show max response, negative = inhibition, usual class: inhibitors; purified cruzain, Z-FR-AMC fluorescence, no detergent; active = well fitted curve in the direction sought with a large enough effect; inconclusive = small, poorly fitted or top-dose-only effect, or another doubt; inactive = no such curve, though single readings can be large; an effect the other way counts as inactive or inconclusive;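 also: plate controls were enzyme without inhibitor for no effect and buffer without enzyme for full effect; nearly all actives have a fitted effect of over 40% in size; top concentration of the series not given in the record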
Target sequence (P25779 123-467 limits assumed): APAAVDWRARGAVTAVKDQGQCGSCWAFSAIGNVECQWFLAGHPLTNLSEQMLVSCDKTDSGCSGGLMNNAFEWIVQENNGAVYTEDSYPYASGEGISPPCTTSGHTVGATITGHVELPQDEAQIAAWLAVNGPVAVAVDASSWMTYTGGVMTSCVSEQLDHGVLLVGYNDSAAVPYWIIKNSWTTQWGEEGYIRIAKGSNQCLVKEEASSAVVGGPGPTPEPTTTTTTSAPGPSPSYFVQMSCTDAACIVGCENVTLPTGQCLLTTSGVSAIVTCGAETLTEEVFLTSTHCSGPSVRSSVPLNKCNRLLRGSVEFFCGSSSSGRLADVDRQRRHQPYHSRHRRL
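Purified cruzain at 1.5 nM, pre-incubated 15 min with compound at room temperature in 100 mM sodium acetate pH 5.5, 5 mM DTT, 0.00005% Triton X-100. Reaction started with 2 uM Z-FR-AMC; AMC fluorescence increase over 60 s gives rate.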
SARS PLP yeast: SARS-CoV PLP inhibition in yeast; S. cerevisiae expressing SARS-CoV PLpro, growth rescue; control for the full effect not named in the record; Potency, µM (titrated, usually from 32.9 µM), inactives show at the top dose activity, positive = growth rescue; hit rate 0.19% among 330,000; AID 485353; also: 0% is about no effect; nearly all actives have a fitted effect of over 55% in size; growth read by luminescence after 48 h
2A StopGo: lowers the luciferase signal of an FMDV 2A StopGo reporter; human cells with a luciferase reporter of 2A StopGo recoding; control for the full effect not named in the record; Potency, µM (highest dose often 57.9 µM), without a hit: at the highest dose signal change, negative = less light; hit rate 1.2% among 410,000; active = well fitted falling curve with a large enough effect; inconclusive = small, poorly fitted or top-dose-only effect; inactive = no such curve, though single readings can be large or run the other way; tested in HEK293T cells; also: % is scaled to controls: 0 for no effect and ±100 for the full control effect; nearly all actives have a fitted effect of over 45% in size; luciferase light after 4 h
Cruzain Triton: blocks cruzain activity in presence of Triton detergent. AID 1478. hit rate 0.43% among 200,000. P25779. purified cruzain, Z-FR-AMC fluorescence, 0.01% Triton. Potency, µM, for inactives: max response, negative = inhibition, actives largely listed as inhibitors; active = well fitted curve in the direction sought with a large enough effect; inconclusive = small, poorly fitted or top-dose-only effect, or another doubt; inactive = no such curve, though single readings can be large; an effect the other way counts as inactive or inconclusive;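 also: plate controls were neutral wells for no effect and buffer without enzyme for full effect; nearly all actives have a fitted effect of over 40% in size; top concentration of the series not given in the record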
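Purified cruzain (1.5 nM final) was preincubated with compounds for 15 min at room temperature in 100 mM sodium acetate pH 5.5, 5 mM DTT, 0.01% Triton X-100. Reaction started with 2 uM Z-FR-AMC; AMC fluorescence change over 60 s gave activity.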
Lassa entry inh: inhibitors of Lassa virus binding or cell entry. Lassa virus pseudotype entry inhibition, cell reporter; control for the full effect not named in the record. Potency, µM (highest dose often 37.9 µM), inactives show at the highest dose activity change, negative = inhibition, actives largely listed as inhibitors. hit rate 1.2% among 300,000. AID 540256; active means well fitted inhibition curve with a large enough effect; inconclusive means small, poorly fitted or top-dose-only effect, or effect the other way; inactive means flat fitted curve, though single readings scatter; tested in HEK293 cells; also: % is scaled to controls: 0 for no effect and ±100 for the full control effect; nearly all actives have a fitted effect of over 50% in size; luciferase read-out
RE007 growth inh: less growth of the S. pombe RE007 Vpr strain. S. pombe RE007 Vpr strain, BacTiter-Glo ATP luminescence, 24 h; control for the full effect not named in the record. Potency, µM (top dose mostly 92.2 µM), without a hit: top-dose activity change, negative = less growth. hit rate 0.21% among 360,000; active = well fitted falling curve with a large enough effect; inconclusive = small, poorly fitted or top-dose-only effect; inactive = no such curve, though single readings can be large or run the other way;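 also: % is scaled to controls: 0 for no effect and ±100 for the full control effect; nearly all actives have a fitted effect of over 50% in size; the assay follows cell death caused by Vpr and the record does not say whether a fall means rescue or toxicity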
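Fission yeast strain RE007, carrying one chromosomally integrated HIV-1 vpr copy, was seeded at OD 0.01 in PMG+AL medium with 23 nL pinned compound. After 24 h at 30 °C and 99% humidity, viability was read by BacTiter-Glo luminescence.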
NS1 inh: blocks influenza NS1 protein function; AID 2326; hit rate 0.4% among 270,000; S. cerevisiae slowed by influenza A NS1, growth recovery by OD600; Potency, µM (doses to about 46.1 µM), for the others: at the top dose activity, positive = more growth; also: actives are rising curves; nearly all actives have a fitted effect of over 50% in size
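Compounds were scored for reversing the slow growth caused by influenza A NS1 in S. cerevisiae, measured by optical density at 600 nm. Assay medium contained 2% galactose at pH 6.0; NS1-free yeast of the same strain were the positive control.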
Marburg entry inh: blocks Marburg virus binding to or entry into cells. Marburg virus pseudotyped entry inhibition, cell reporter; control for the full effect not named in the record; about a third of the inactives were read at about 46 µM. Potency, µM (series often up to 37.8 µM), inactives show top-dose activity change, negative = inhibition, usual class: inhibitors. hit rate 1.8% among 300,000. AID 540276; active = well fitted inhibition curve with a large enough effect; inconclusive = small, poorly fitted or top-dose-only effect, or effect the other way; inactive = flat fitted curve, though single readings scatter; tested in HEK293 cells; about a fifth of its hits are not listed in these tables; also: % is scaled to controls: 0 for no effect and ±100 for the full control effect; luciferase read-out
Active calls of the source: *; u = inconclusive; x = not tested or not shown; & = joins results of further samples; [ ] = dose if it differs, or a comment. Unless noted, calls follow the shape of the dose curve; as a rule, active means well fitted rising curve with a large enough effect; inconclusive means small, poorly fitted or top-dose-only effect; inactive means no such curve, though single readings can be large or run the other way. Potency is read from the fitted curve at half-maximal effect.

Results follow in this order: Cruzain inh noDet	SARS PLP yeast	2A StopGo	Cruzain Triton	Lassa entry inh	RE007 growth inh	NS1 inh	Marburg entry inh
> CC1(c2ccccc2)NC(=O)N(CC(=O)Nc2cc3c(cc2Br)OCCO3)C1=O (stereo not drawn)
    x	-3%	-2%	x	-23%	1%	x	u
> CCN(CC)CCOC(=O)c1ccc(N/C=C(/C#N)c2nc(-c3ccc(OC)c(OC)c3)cs2)cc1
    x	1%	-8%	x	10%[46.1 µM]	8%	-66%	u
> O=C(O)C1CC=CCC1C(=O)NCc1ccccc1 (stereo not drawn)
    -5%	-2%	-9%	4.4%	30%[14.3 µM]	-17%	-4%	0%
> COc1ccc(S(=O)(=O)N2CCSC2C)cc1C (stereo not drawn)
    x	-3%	1%	x	x	-21%	-8%	x
> CC1CCc2nc3ccc(S(=O)(=O)N4CCC(C(=O)NCc5ccccc5Cl)CC4)cc3c(C(=O)O)c2C1 (stereo not drawn)
    u	1%	8%&-5%	-25%	2%[46.1 µM]	8%	21%	u
> CCOC(=O)c1c(S(=O)(=O)NCC(=O)N2CCN(c3cc(C)ccc3C)CC2)c(C)n(C)c1C
    u	x	-30%	-2.8%	-14%[46.1 µM]	x	x	x
> C/C(=N\NC(N)=O)c1ccccc1
    x	0%	10%	x	2%	-11%	-2%	17%[46.1 µM]
> CCC(=O)NCCN1CCN(C(=O)CC)CC1
    -12%	4%	-25%	3.2%	3%	-1%	9%	-6%[46.1 µM]
> N#Cc1c(N2CCOCC2)nc(N2CCCCC2)c2c1CCN(C1CCCCC1)C2
    -10%	-2%[6.58 µM]	-9%	-4.9%	13%	-9%	1%	-21%
> Cc1ccc2c(c1)c1nnc(SCC(=O)Nc3ccccc3C(F)(F)F)nc1n2CC(=O)O
    x	1%	9%	x	u	5%	x	-20%[46.1 µM]
> O=C(Cc1ccccc1)Nc1nccs1
    x	-1%	2%	x	x	19%	0%	x
> Cc1ccc(/C=C(\NC(=O)c2ccccc2)C(=O)OCc2ccccc2)cc1
    u	1%	21%	7.9µM*	-3%	-13%	10%	-12%
> COC(=O)c1[nH]c2ccc(F)cc2c1NS(=O)(=O)c1ccc(OC)cc1
    -4%	19%	-7%	-9.3%	u	-1%	-3%	u
> Cn1c2c(c(=O)n(C)c1=O)C(c1cccc([N+](=O)[O-])c1)Nc1ccccc1O2 (stereo not drawn)
    -4%	-6%	-22%	-5.2%	14%	0%	-2%	6%
> C=CCNc1nc(NCCO)nc(N2CCCC2)n1
    -5%	-5%	8%	-0.2%	3%	-13%	-6%	u
> Cc1nc(C)n(CC(=O)N2CCCC(C(=O)c3ccc(C(F)(F)F)cc3)C2)n1 (stereo not drawn)
    x	0%	-18%	x	10%	4%	6%	0%[46.1 µM]
> Cc1ccnc2nc(C(=O)NCc3cccs3)nn12
    -4%	x	-10%	4.1%	17%	-2%	11%	-21%
> CSc1nsc(SCC(=O)Nc2ccc3c(c2)OCCO3)n1
    -8%	-7%	34%[activator]	0.6%	u	-5%	-8%	-54%
> COc1cccc(C2/C(=C(\O)c3ccc(OC)c(OC)c3)C(=O)C(=O)N2c2cc(C)on2)c1 (stereo not drawn)
    -14%	-5%	-9%	-2.8%	-5%	21%	6%	-12%[46.1 µM]
> CCOC(=O)N1CCC(NC(=O)CS(=O)(=O)Cc2nc(-c3ccc(C)cc3)oc2C)CC1
    u	2%	u	1.4%	x	1%	2%	x
> CC(=O)O[C@@]12CO[C@@H]1C[C@H](O)[C@@]1(C)C(=O)[C@H](O)C3=C(C)[C@@H](O)C[C@@](O)([C@@H](OC(=O)c4ccccc4)C12)C3(C)C (stereo partly drawn)
    x	0%	-4%	x	x	14%	-6%	x
> C/C(=N/NC(=O)CN1CCN(S(=O)(=O)c2ccc(Br)cc2)CC1)c1ccncc1
    x	-1%	-18%	x	x	-1%	-2%	8%
> COc1ccc(Cl)cc1N(CC(=O)NCC(C)C)S(=O)(=O)c1ccc(C)c([N+](=O)[O-])c1
    -2%	12%	37%[activator]	0.9%	8%	1%	11%	1%
> Cc1ccc(N=CC=C2OC(C)(C)C(C)(C)O2)c(C)c1
    18%	5%	22%	-4.4%	u	-8%	-1%	-19%
> Cc1cc(C)cc(NC(=O)Cn2cc3c(n2)CCCCC3)c1
    6%	7%	x	-0.8%	x	x	-15%	-1%
> CCC1(CC)C(=O)C=CNC1=O
    -3%&4%	x	-12%&1%	0.4%&-1.7%	x	8%[18.4 µM]	x	x
> COc1ccc(NC2(c3ccccc3)OC(=O)c3ccccc32)cc1 (stereo not drawn)
    x	-3%	-2%	x	u	25%	x	-5%[14.2 µM]
> Cc1ccc(CNC(=O)CN2C(=O)COc3ccc(S(=O)(=O)N4CCC(C)CC4)cc32)o1
    x	9%	1%	x	-7%[46.1 µM]	1%	0%	u
> Cc1nc(CNC(=O)c2ccccc2OC2CCN(S(C)(=O)=O)CC2)cs1
    x	1%	1%	x	x	30%	4%	x
> COc1ccc(CNC(=O)C(c2cccs2)N(Cc2ccco2)C(=O)Cc2cccs2)cc1 (stereo not drawn)
    -3%	-3%	-23%	-7.3%	u	6%	-7%	u

Additional compounds follow:
Results follow in this order: Cruzain inh noDet	SARS PLP yeast	2A StopGo	Cruzain Triton	Lassa entry inh	RE007 growth inh	NS1 inh	Marburg entry inh
> O=C(O)C1Cc2ccccc2CN1S(=O)(=O)c1ccc(Cl)cc1 (stereo not drawn)
    x	-1%	-1%	x	25%	12%	0%	5%[14.2 µM]
> O=C(CSc1nnc(CNC(=O)c2c(F)cccc2F)o1)NCc1ccccc1Cl
    x	2%	-12%	x	-1%	-5%	0%	u
> CC1CCN(S(=O)(=O)c2nnc(NC(=O)c3cccc(Cl)c3)s2)CC1
    10%	13%	-28%&0%	1.8%	2%[46.1 µM]	-12%	12%	x
> CCC(=O)N1CCc2cc(CNS(=O)(=O)c3ccc(NC(=O)CC(C)C)cc3)ccc21
    14%	x	-21%	-8.5%	3%[46.1 µM]	x	x	x
> COCCNC(=O)CCCn1c(SCC(=O)NCc2ccc(C)cc2)nc2c(sc3ccccc32)c1=O
    -1%	x	-15%	2.6%	23%[46.1 µM]	x	x	10%[46.1 µM]
> COC(=O)CC1COc2ccccc2N1C(=O)c1ccc(C(C)(C)C)cc1 (stereo not drawn)
    6%	-12%	u	-3.3%	-21%	3%	-60%	-16%
> Cc1cccc(C)c1NC(=O)C1CCN(C(=O)c2cccs2)CC1
    x	1%	15%	x	-2%[46.1 µM]	-12%	1%	4%[46.1 µM]
> O=C(CC(=O)NCc1ccc(Cl)cc1)NCc1ccccc1
    x	1%	-26%	x	x	12%	0%	x
> CCSc1nc2ccccc2n1C(=O)/C=C/c1ccc(OC)c(OC)c1
    u	7%	20µM*	-9.1%	6.3µM*	x	4%	u
> COc1ccc(CC(=O)Nc2ccc(/C(C)=N/NC(=O)c3ccc(OC)cc3OC)cc2)cc1
    x	-2%	8%	x	11%[46.1 µM]	-2%	-4%	-3%[46.1 µM]
> CCc1ccc(C(=O)C[n+]2cccc3cc(OC)ccc32)cc1
    x	-3%	-24%	x	x	-2%	4%	x
> Cc1cccn2c(=O)c3cc(C(=O)NC4CCCC4)sc3nc12
    x	-10%	23%	x	x	17%	-35%	x
> O=C(c1ccco1)n1nc(-c2ccccc2)nc1NCc1ccccc1Cl
    0%	x	0%	-0.2%	5%[46.1 µM]	x	x	u
> CC(=O)N=c1c(C#N)cc2c(=O)n3ccccc3nc2n1Cc1ccccc1
    5%	-12%	-4%	-3.7%	-2%	-17%	9%	3%
> Cc1ccc(S(=O)(=O)N(CC(=O)NC2CCCCCC2)c2ccccc2F)cc1
    -4%	1%	19%	2.2%	-1%	1%	2%	-13%
> O=C1C=C(N2CCN(C(=O)c3ccccc3)CC2)C2(CCCCC2)O1
    -6%	-1%	-17%	6.1%	2%	2%	-2%	7%
> O=C(O)CCCCCNC(=O)c1cccc(Br)c1
    -2%	-5%	2%	1.5%	10%	-12%	4%	4%
> CCOP(=O)(c1ccc(N(C)C)cc1)C(O)c1cccnc1 (stereo not drawn)
    x	0%	-6%	x	5%	2%	2%	3%[46.1 µM]
> CN1CC(=O)N2C(c3cccc([N+](=O)[O-])c3)c3[nH]c4ccccc4c3C[C@H]2C1=O (stereo partly drawn)
    x	0%	-25%	x	x	-2%	5%	x
> CCCCCC(=O)Oc1cccc(N2C(=O)C3CCCCC3C2=O)c1 (stereo not drawn)
    x	-4%	-8%	x	14%	15%	x	u
> O=C(NC1CCCc2ccccc21)c1ccccc1 (stereo not drawn)
    -11%	6%	1%	0.3%	u	19%	-8%	6%
> Cc1ccc(Cn2c(CCCNC(=O)C3CCCCC3)nc3ccccc32)cc1
    6%	x	-24%	-4.7%	u	x	x	u
> O=C(OCC(=O)N1c2ccccc2Sc2ccccc21)c1cccnc1
    x	-4%	-13%	x	x	6%	0%	x
> COc1ccc(Nc2c(-c3ccc(N4CCOCC4)cc3)nc3ncccn23)cc1OC
    27%	x	3%	-4.3%	21%[46.1 µM]	x	x	-5%[46.1 µM]
> O=S(=O)(Nc1ccc(N2CCOCC2)cc1)c1ccccc1
    0%	-4%	2%	2.1%	-3%	-1%	5%	-2%
> Cc1c(Cl)cccc1NC(=S)Nc1ccccn1
    x	1%	10%	x	x	-18%	x	u
> CN(C)CCN=Cc1c(O)n(Cc2ccc3c(c2)OCO3)c(=O)c2ccccc12
    x	0%	12%	x	-16%	-1%	3%	-19%[14.2 µM]
> Cc1cc(C(=O)NNS(=O)(=O)c2cc(C(=O)O)ccc2Cl)c(C)n1-c1ccccc1
    x	1%	u	x	13%	3%	x	-14%
> OC(CNCc1ccc(F)cc1)(c1ccc(F)cc1)c1ccc(F)cc1
    -6%	-2%	u	-0.6%	0%	-11%[3.69 µM]	3%	u
> CCOC(=O)c1c(-c2ccco2)csc1NC(=O)COC(=O)c1cnc(C)cn1
    x	-18%	-11%	x	2%	7%	x	19%

High-throughput results: PubChem BioAssay, National Center for Advancing Translational Sciences (NCATS)
